Vif-APOBEC3F blk: inhibitors of Vif-A3F interaction; HeLa A3F-eYFP + Vif (tagged APOBEC3F with the HIV-1 protein that degrades it), YFP fluorescence increase; Potency, µM (highest dose often 46.1 µM), for inactives: at the highest dose activity, negative = active; 390,000 compounds, 0.2% hits; note: potency is the fitted concentration of half-maximal effect; % of control where 0% means no effect; nearly all actives have a fitted effect of over 65% in size
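Fluorescence increase (Ex 488/Em 500-530) after overnight compound treatment at 37 deg C flags inhibition of Vif-driven A3F-eYFP loss in stable HeLa A3F-eYFP/Vif cells seeded overnight beforehand.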
ERG Ets-DNA blk: blocks human ERG Ets domain binding to DNA | P11308 | fluorescence polarization, His-ERG Ets domain / labelled DNA | Potency, µM (titrated, usually from 76.9 µM), for inactives: at the top dose FP activity, negative = inhibition, usual class: inhibitors | 370,000 compounds, 0.028% hits; active = well fitted inhibition curve with a large enough effect in the polarisation, with a control signal flat; inconclusive = small, poorly fitted or top-dose-only effect, or effect the other way, or a change in a side signal; inactive = no such curve, though single readings can be large or run the other way; the % refers to the polarisation;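 note: polarization taken with two DNA probes labelled with fluorescein and Texas red; potency is the fitted concentration of half-maximal effect; % of control where 0% means no effect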
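His-tagged ERG Ets domain (1 uM in the protein solution; 300mM KCl, 50mM Tris-HCl, 1mM EDTA, 1mM DTT, pH 7.5) received compound, then a probe mix of 5 nM fluorescein-DNA and 100nM Texas-615-DNA. Fluorescence polarization was read for both dyes.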
12-LOX inh: ALOX12 (human) lipoxygenase inhibition; purified 12hLO, xylenol orange hydroperoxide absorbance; Potency, µM (titrated, usually from 108 µM), for inactives: at the top dose activity change, negative = inhibition, hits mostly inhibitors; 580,000 compounds, 1.1% hits; note: potency is the fitted concentration of half-maximal effect; % is set by controls: 0 for no effect and ±100 for the full control effect
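Purified human 12hLO (150 nM final) in 25 mM Hepes, 0.01% Triton X-100, pH 7.0 was preincubated 15 min at room temperature with compound. Then 40 uM arachidonic acid was added, 30 min. Hydroperoxide was read by Fe-XO absorbance ratio 573/405 nm.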
Glioma ERSR ind: induces the endoplasmic reticulum stress response in human glioma cells; U87-MG GRP78 promoter luciferase reporter, 16 h; Potency, µM, for the others: at the top dose activation, most hits filed as activators; 420,000 compounds, 0.02% hits; AID 602332; note: potency is the fitted concentration of half-maximal effect; series mostly up to about 76 µM; % of control where 0% means no effect; nearly all actives have a fitted effect of over 35% in size
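Stably transfected U87-MG glioma cells carrying a GRP78-based luciferase sensor; 16 h compound incubation. Luminescence end-point read 10 min after Bright-Glo addition at room temperature.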
Vif-APOBEC3G blk: Vif-A3G binding inhibition. Q9HC16. HeLa A3G-eYFP + Vif (tagged APOBEC3G with the HIV-1 protein that degrades it), YFP fluorescence, overnight. Potency, µM (top dose mostly 46.1 µM), without a hit: at the top dose activity, negative = active, usual class: inhibitors. 410,000 compounds, 0.076% hits. AID 602310;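 note: potency is the fitted concentration of half-maximal effect; % is set by controls: 0 for no effect and ±100 for the full control effect; nearly all actives have a fitted effect of over 60% in size; hits raise eYFP signal because A3G escapes Vif-driven loss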
Target sequence (Q9HC16 whole entry, looked up): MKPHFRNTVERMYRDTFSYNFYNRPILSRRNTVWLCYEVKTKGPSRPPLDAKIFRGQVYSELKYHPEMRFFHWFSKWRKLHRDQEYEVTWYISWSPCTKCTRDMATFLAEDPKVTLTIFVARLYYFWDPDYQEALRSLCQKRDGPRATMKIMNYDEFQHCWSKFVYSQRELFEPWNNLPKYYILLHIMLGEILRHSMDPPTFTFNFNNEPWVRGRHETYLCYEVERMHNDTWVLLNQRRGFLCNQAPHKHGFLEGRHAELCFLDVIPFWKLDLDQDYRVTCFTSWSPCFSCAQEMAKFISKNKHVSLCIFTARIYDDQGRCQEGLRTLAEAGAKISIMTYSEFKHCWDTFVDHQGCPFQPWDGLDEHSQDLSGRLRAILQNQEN
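HeLa cells stably expressing Vif and C-terminally eYFP-tagged A3G, seeded overnight at 37 deg C, then exposed to compound by pintool overnight at 37 deg C. Rise in yellow fluorescence (Ex 488/Em 500-530, Acumen) marks blocked Vif-driven A3G degradation.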
LDHA block: blocks human lactate dehydrogenase A; AID 1347041; purified LDHA, NADH/diaphorase-resazurin fluorescence; hits give low values; activity change, % (values are at about 110 or 230 µM); 480,000 compounds, 0.15% hits; in the data active = activity change below about -30%; inconclusive = mostly about -25% to -30%;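 note: plate controls were DMSO wells for no effect and wells without enzyme for full effect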
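Enzyme activity of human lactate dehydrogenase 5 (2 nM; 0.06 mM NADH, 0.2 mM pyruvate, 5 min, RT) is measured via a resazurin/diaphorase fluorescence readout of residual NADH.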
Numbers without * were called inactive; ? = inconclusive; nt = not tested or not shown; & = joins results of further samples; [ ] = remark or other dose. Unless noted, calls come from the whole dose curve; as a rule, active = well fitted curve in the direction sought with a large enough effect; inconclusive = small, poorly fitted or top-dose-only effect, or another doubt; inactive = no such curve, though single readings can be large; an effect the other way counts as inactive or inconclusive.

SMILES	Vif-APOBEC3F blk	ERG Ets-DNA blk	12-LOX inh	Glioma ERSR ind	Vif-APOBEC3G blk	LDHA block
CCNC(=O)[C@H]1O[C@H](n2cnc3c(N)nc(NCCc4ccc(CCC(=O)O)cc4)nc32)[C@@H](O)[C@@H]1O	nt	nt	?	-3.0%	nt	nt
CO[C@]12C(COC(N)=O)C3=C(C(=O)C(C)=C(N)C3=O)N1CC1NC12 (some centres undefined)	nt	nt	nt	-8.1%	nt	nt
CC[C@H](C)[C@H]1O[C@]2(CC[C@@H]1C)C[C@@H]1C[C@@H](CC=C(C)[C@@H](O[C@H]3C[C@H](OC)[C@@H](O[C@H]4C[C@H](OC)[C@@H](O)[C@H](C)O4)[C@H](C)O3)[C@@H](C)C=CC=C3CO[C@@H]4[C@H](O)C(C)=C[C@@H](C(=O)O1)[C@]34O)O2	?	-2.6%	nt	-0.8%	-17.1%	-0.9
C[C@H]1C[C@H]2[C@@H]3CCC4=CC(=O)C=C[C@]4(C)[C@@]3(F)[C@@H](O)C[C@]2(C)[C@@]1(O)C(=O)CO	-1.4%	0.3%	8.2%	-2.8%&-2.8%	-5.2%	-6.6
CCOC(=O)C1=C(COCCN)NC(C)=C(C(=O)OC)C1c1ccccc1Cl (centres undefined)	-2.9%&-1.7%&-5.6%	-4.2%&-11.1%&-15.1%	?	-1.5%&-2.7%&-3.4%&-3.7%&-7.1%&0.3%&-3.2%	-13.6%&-4.4%&-4.4%&-18.3%	2.9&-5.1&-1.6&0.6
CN1CCN(C2=Nc3ccccc3Oc3ccc(Cl)cc32)CC1	-1.1%	-9.7%	9.3%	-4.3%&-2.6%&-2.3%&-4.4%	0.3%	-6.7
CSc1ccc2c(c1)N(CC[C@H]1CCCCN1C)c1ccccc1S2	nt	nt	nt	-5.3%	nt	nt
Nc1ccn(C2CSC(CO)O2)c(=O)n1 (centres undefined)	nt	nt	0.6%	nt	nt	nt
COc1ccc(C[C@H](N)C(=O)N[C@@H]2[C@H](O)[C@H](n3cnc4c(N(C)C)ncnc43)O[C@@H]2CO)cc1	nt	nt	nt	-8.9%	nt	nt
NC[C@H](O)c1ccc(O)c(O)c1	4.2%	-8.2%	?	2.1%&-2.5%&-3.1%&0.3%	-1.7%	8.5&12.6
Oc1cc2c(cc1O)C(c1ccccc1)CNCC2 (centres undefined)	-10.0%	-7.8%	?	-4.5%&5.6%&-3.2%&-5.5%	1.8%	13.7
CC1(C)O[C@@H]2C[C@H]3[C@@H]4C[C@H](F)C5=CC(=O)C=C[C@]5(C)[C@H]4[C@@H](O)C[C@]3(C)[C@]2(C(=O)CO)O1	0.9%	1.1%	3.7%	-0.8%	-1.2%	-16.7
CO/N=C(/C(=O)NC1C(=O)N2C(C(=O)O)=C(CSc3nc(=O)c(O)nn3C)CSC12)c1csc(N)n1 (centres undefined)	nt	nt	nt	-4.9%&-6.1%	nt	nt
CC(C)NC[C@@H](O)COc1ccc(CC(N)=O)cc1	0.7%	7.3%	1.5%	0.2%	1.5%	-1.5
CC(C)(C)[C@]1(O)CCN2C[C@H]3c4ccccc4CCc4cccc(c43)[C@@H]2C1	-4.9%	3.9%	?	-1.4%&0.1%&-3.3%&-1.8%	-4.2%	-5.8
COc1ccccc1N1CCN(CCN2C(=O)c3ccccc3C(C)(C)C2=O)CC1	nt	nt	?	-5.1%&-3.6%	nt	nt
CON=C(C(=O)NC1C(=O)N2C(C(=O)O)=C(CSc3nc(=O)c(=O)[nH]n3C)CSC12)c1csc(N)n1 (centres undefined)	4.3%	-7.4%	10.4%	-0.8%	2.6%	-4.0
CC1(C)OC2CC3C4CC(F)C5=CC(=O)C=CC5(C)C4C(O)CC3(C)[C@]2(C(=O)CO)O1 (some centres undefined)	nt	nt	-5.3%[57.4 µM]	-0.5%	nt	nt
COc1ccccc1N1CCN(CCCCNC(=O)c2ccc3ccccc3c2)CC1	2.9%	4.5%	?	-3.2%&-2.0%&-5.9%	1.2%	-5.6
CC(=O)N1CCN(c2ccc(OCC3CO[C@@](Cn4ccnc4)(c4ccc(Cl)cc4Cl)O3)cc2)CC1 (some centres undefined)	nt	nt	nt	-7.1%	nt	nt
COC(=O)C1C(O)CC[C@@H]2CN3CCc4c([nH]c5ccccc45)C3C[C@@H]12 (some centres undefined)	nt	nt	nt	-2.2%&-5.5%	nt	nt
CCCN1C[C@H](CSC)C[C@H]2c3cccc4[nH]cc(c34)C[C@@H]21	nt	nt	nt	-3.4%	nt	nt
COc1ccc(CC(N)C(=O)N[C@H]2[C@@H](O)[C@H](n3cnc4c(N(C)C)ncnc43)O[C@@H]2CO)cc1 (some centres undefined)	nt	nt	nt	-8.2%	nt	nt
C[C@@H]1C[C@@H]2[C@H]3CCC4=CC(=O)C=C[C@]4(C)[C@]3(F)[C@@H](O)C[C@]2(C)[C@@]1(O)C(=O)CO	nt	nt	nt	-4.0%	nt	nt
CC1=C(CC(=O)O)c2cc(F)ccc2/C1=C/c1ccc(S(C)=O)cc1 (centres undefined)	-4.7%	12.4%	-1.2%	-0.1%	0.0%	-7.8

(further entries)
SMILES	Vif-APOBEC3F blk	ERG Ets-DNA blk	12-LOX inh	Glioma ERSR ind	Vif-APOBEC3G blk	LDHA block
O=C1N=C(O)CN1/N=C/c1ccc(-c2ccc([N+](=O)[O-])cc2)o1	2.0%	11.3%	?	-3.7%&-0.6%	-3.5%	-8.6
C[C@]12C=CC(=O)C=C1CCC1C2C(O)C[C@]2(C)C1CC[C@]2(O)C(=O)CO (some centres undefined)	nt	nt	nt	-5.2%	nt	nt
Cc1ccnc(N)c1	nt	nt	11.6%[176 µM]	-1.9%	nt	nt
CC(C)(C)[C@]1(O)CCN2CC3c4ccccc4CCc4cccc(c43)[C@@H]2C1 (some centres undefined)	nt	nt	nt	-2.5%	nt	nt
CCOc1ccccc1O[C@H](c1ccccc1)[C@H]1CNCCO1	-0.1%	-8.6%	12.0%&0.0%	-1.7%	-0.2%	-15.6
NC(CO)C(=O)NNCc1ccc(O)c(O)c1O (centres undefined)	2.3%	?	44.1%[activator]	-3.8%&-5.2%&-8.5%	0.7%	4.2

Structural class: the compounds so far with sulfur.
SMILES	Vif-APOBEC3F blk	ERG Ets-DNA blk	12-LOX inh	Glioma ERSR ind	Vif-APOBEC3G blk	LDHA block
CSc1ccc2c(c1)N(CC[C@H]1CCCCN1C)c1ccccc1S2	nt	nt	nt	-5.3%	nt	nt
Nc1ccn(C2CSC(CO)O2)c(=O)n1 (centres undefined)	nt	nt	0.6%	nt	nt	nt
CO/N=C(/C(=O)NC1C(=O)N2C(C(=O)O)=C(CSc3nc(=O)c(O)nn3C)CSC12)c1csc(N)n1 (centres undefined)	nt	nt	nt	-4.9%&-6.1%	nt	nt
CON=C(C(=O)NC1C(=O)N2C(C(=O)O)=C(CSc3nc(=O)c(=O)[nH]n3C)CSC12)c1csc(N)n1 (centres undefined)	4.3%	-7.4%	10.4%	-0.8%	2.6%	-4.0
CCCN1C[C@H](CSC)C[C@H]2c3cccc4[nH]cc(c34)C[C@@H]21	nt	nt	nt	-3.4%	nt	nt
CC1=C(CC(=O)O)c2cc(F)ccc2/C1=C/c1ccc(S(C)=O)cc1 (centres undefined)	-4.7%	12.4%	-1.2%	-0.1%	0.0%	-7.8

Screening results deposited in PubChem by National Center for Advancing Translational Sciences (NCATS).

The list is partial. The share of hits here may be higher or lower than overall.
